# Screening results deposited in PubChem BioAssay by several laboratories.
# Env fusion inh: HIV envelope-mediated fusion inhibition; inhibition, % at 12.3 µM; AID 651610; 360,000 compounds, 1.1% hits; HeLa-JRFL Env/CEM21 cell fusion, luciferase;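 active = mean replicate inhibition score of at least 50 and every replicate individually at or above 50; inconclusive = only one of the two criteria met; inactive = mean below 50 and not all replicates reaching 50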;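 note: 0% = plate neutral controls and 100% = maraviroc near 300 nM; one replicate is shown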
# Rce1 inh: yeast Ras-converting enzyme inhibition; Q03530; AID 2563; yeast membranes, quenched prenylated peptide cleavage fluorescence; 290,000 compounds, 0.27% hits; calls only;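 active = fall in fluorescence gain of 50% or more versus controls, with final raw signal at or below 3038400; inconclusive = same 50% fall but final raw signal above 3038400; inactive = fall in fluorescence gain under 50%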;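 note: plate controls were neutral control wells for no effect and wells lacking membranes for full effect; tested at 10 µM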
# Target sequence (Q03530 whole entry, looked up): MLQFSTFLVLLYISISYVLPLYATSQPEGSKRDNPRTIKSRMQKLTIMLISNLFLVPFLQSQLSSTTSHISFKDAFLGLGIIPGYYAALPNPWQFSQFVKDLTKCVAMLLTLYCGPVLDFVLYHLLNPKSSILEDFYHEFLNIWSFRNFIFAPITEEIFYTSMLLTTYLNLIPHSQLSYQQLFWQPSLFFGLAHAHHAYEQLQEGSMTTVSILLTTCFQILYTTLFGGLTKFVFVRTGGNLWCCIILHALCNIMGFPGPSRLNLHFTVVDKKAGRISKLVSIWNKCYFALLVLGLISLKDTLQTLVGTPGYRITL
# eIF4H FP inh: inhibitors of RNA binding by human eIF4H. Q15056. eIF4H fluorescence polarization binding assay. inhibition, % at 35 µM. 290,000 compounds, 0.94% hits. AID 2012;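 active = 50% or more with normal probe brightness, or confirmed in later tests; inconclusive = above 50% with abnormal brightness, or retests that disagree; inactive = below 50% or failed in later tests; about a fifth of its hits are not listed in these tables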;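 note: calls also rest on retests at 20 µM and on dose response follow-up; 0% = protein and probe with vehicle and 100% = probe without protein; strong numbers were not always called active; many hits fall short of the cut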
# CSC inhib: blocks cancer stem cells. cancer stem cell-like cells viability, luminescence. inhibition, % at 7.5 µM. 300,000 compounds, 1.1% hits;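 active = mean at 75% or more and at least half the replicates too; inconclusive = mean and replicates disagree; tested in HMLE shEcad cells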;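 note: 0% = median of negative and 100% = median of positive control wells; the first replicate is given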
# MT1-MMP act inh: inhibitors of human MT1-MMP activation; P50281; HT1080 RFP-PRO-GFP cells, GFP/RFP ratio fluorescence, overnight; percent of plate control window, DMSO zero; GFP/RFP ratio change, % at 20 µM; 360,000 compounds, 0.061% hits; AID 651647;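 active = GFP/RFP ratio change of at least 30% with cell ATP level not reduced by more than half and red fluorescence within 50% of control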; note: strong numbers were not always called active
#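 system = RFP-PRO-GFP reporter HT1080 cells | dosing = 20 µM single dose, 1% DMSO | timing = overnight cell settling, then overnight compound exposure, 37 °C, 5% CO2 | read-out basis = GFP/RFP fluorescence ratio | controls = DMSO and RFP-L50D-GFP cell wells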
# UUG fidelity: modulators of start codon recognition fidelity in yeast; 350,000 compounds, 0.13% hits; activity score, % at 18.7 µM; S. cerevisiae UUG-firefly luciferase reporter, luminescence/redox ratio; AID 602363;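 active = replicate mean at a twofold rise or more, about +100% in these data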;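 note: firefly luciferase made from a UUG start codon reports start codon fidelity; reporter light over untreated wells divided by growth signal over untreated wells; some hits fall short of that in this replicate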
# PABP polyA inh: blocks human PABP binding to poly(A) RNA | fluorescence polarization | AID 2014 | P11940 | inhibition, % at 35 µM | 290,000 compounds, 1% hits;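 active = 50% or more with normal probe brightness, or confirmed in later tests; inconclusive = above 50% with abnormal brightness, or retests that disagree; inactive = below 50% or failed in later tests; about a fifth of its hits are not listed in these tables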;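 note: calls also rest on retests at 20 µM and on dose response follow-up; controls were probe without protein and protein plus probe with vehicle; some compounds called inactive have numbers as strong as hits; many hits fall short of the cut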
# Target sequence (P11940 whole entry, looked up): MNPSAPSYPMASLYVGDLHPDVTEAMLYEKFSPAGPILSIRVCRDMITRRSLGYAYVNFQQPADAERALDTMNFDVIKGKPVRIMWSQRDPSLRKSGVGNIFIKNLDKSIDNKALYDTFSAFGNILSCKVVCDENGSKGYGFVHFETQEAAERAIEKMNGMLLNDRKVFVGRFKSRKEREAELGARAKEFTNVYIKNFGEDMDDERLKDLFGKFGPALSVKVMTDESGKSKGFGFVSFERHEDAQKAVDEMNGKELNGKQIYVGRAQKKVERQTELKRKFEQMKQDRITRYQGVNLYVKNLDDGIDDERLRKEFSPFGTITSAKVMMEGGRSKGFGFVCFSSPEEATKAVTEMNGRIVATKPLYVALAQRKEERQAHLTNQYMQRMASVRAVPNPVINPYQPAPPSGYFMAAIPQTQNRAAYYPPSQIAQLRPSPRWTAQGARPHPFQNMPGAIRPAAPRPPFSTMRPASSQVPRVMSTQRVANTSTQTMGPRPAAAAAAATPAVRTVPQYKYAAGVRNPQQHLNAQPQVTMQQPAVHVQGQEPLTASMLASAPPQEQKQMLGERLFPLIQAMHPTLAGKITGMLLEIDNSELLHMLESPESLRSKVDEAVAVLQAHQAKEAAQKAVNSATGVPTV
# eIF4H FP inh retest: also measured in eIF4H FP inh; calls as there; inhibition, %; compound at 20 µM; confirmation average;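 mean of two retest wells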
# PABP polyA inh retest: second read-out of PABP polyA inh, no call of its own (marks repeat the call); inhibition, %; compound at 20 µM; confirmation repeats;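 mean of two retest wells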
# MT1-MMP act inh RFP: recorded beside MT1-MMP act inh, whose call it bears; RFP signal change, %; measured here: RFP expression control read;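 0 = vehicle wells; hits needed this value within 50% of zero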
# * = called active by the depositor; i = inactive; ? = inconclusive; . = not tested or not shown; & = joins results of further samples.
SMILES,Env fusion inh,Rce1 inh,eIF4H FP inh,CSC inhib,MT1-MMP act inh,MT1-MMP act inh RFP,UUG fidelity,PABP polyA inh,others
Cc1ccc(OCCC(=O)OCC(=O)NC2CCCC2)cc1,.,i,.,.,6,1,-8,.,
COc1ccc(Cc2nnc(NC(=O)CS(=O)(=O)c3ccc(C)cc3)s2)cc1OC,3,i,-3,6,2,5,-16,1,
COc1ccccc1NC(=S)NNC(=O)c1nn(C)cc1Cl,-22,i,1,-9,2,2,-20,-6,
COC(=O)c1sccc1NC(=O)Nc1ccc(C)c(C)c1,-86,i,2,-17,-5,-3,-66,-2,
COc1ccc(OC)c(NC(=O)NNC(=O)COc2ccc(F)cc2F)c1,-18,i,2,2,3,1,-14,0,
COCCN(C(=O)CSc1nc(-c2ccccc2)cn1N)c1c(N)n(Cc2ccccc2)c(=O)[nH]c1=O,-3,i,.,-6,-4,2,.,.,
O=C1N=C(N2CCCCC2)S/C1=C/C1=Cc2ccccc2OC1,-6,i,2,3,4,1,.,6,
Cc1cc(-c2sccc2C)nc(-n2cccc2)n1,0,i,?,35,-1,-1,-5,44*,PABP polyA inh retest=81*
COc1cccc(C(=O)NC(C)c2ccc(Br)cc2)c1 (stereo unspecified),0,i,8,-1,0,3,.,-3,
O=[N+]([O-])c1ccc(-c2nnc(CNC3CCCC3)o2)cc1,17,i,2,-15,-1,-1,-11,68,eIF4H FP inh retest=-7;PABP polyA inh retest=1
CCOc1ccc(CCNc2nc3c(c(=O)n(C)c(=O)n3C)n2CC)cc1OCC,32,i,-6,.,-8,-16,.,2,
CS(=O)(=O)N(CC(=O)NCc1ccncc1)c1ccc(F)c(Cl)c1,-19,i,9,1,2,3,.,-7,
COc1cc(C2C(C#N)=C(N)N(Nc3ccccc3)C3=C2C(=O)CC(C)(C)C3)ccc1OCc1ccccc1 (stereo unspecified),.,i,-6,23,-9,-14,-9,2,
CCN(CC)C(=O)Cn1nc(-c2ccc(Cl)cc2)c2ccccc2c1=O,17,i,1,-3,-3,0,.,1,
COc1ccc(C2(CNC(=O)c3ccc(N)cc3)CCCC2)cc1,-6,i,-7,-8,-1,-2,-8,-3,

# 11 entries already listed, ordered by heavy-atom count, high to low:
SMILES,Env fusion inh,Rce1 inh,eIF4H FP inh,CSC inhib,MT1-MMP act inh,MT1-MMP act inh RFP,UUG fidelity,PABP polyA inh,others
COc1cc(C2C(C#N)=C(N)N(Nc3ccccc3)C3=C2C(=O)CC(C)(C)C3)ccc1OCc1ccccc1 (stereo unspecified),.,i,-6,23,-9,-14,-9,2,
COCCN(C(=O)CSc1nc(-c2ccccc2)cn1N)c1c(N)n(Cc2ccccc2)c(=O)[nH]c1=O,-3,i,.,-6,-4,2,.,.,
CCOc1ccc(CCNc2nc3c(c(=O)n(C)c(=O)n3C)n2CC)cc1OCC,32,i,-6,.,-8,-16,.,2,
COc1ccc(OC)c(NC(=O)NNC(=O)COc2ccc(F)cc2F)c1,-18,i,2,2,3,1,-14,0,
CCN(CC)C(=O)Cn1nc(-c2ccc(Cl)cc2)c2ccccc2c1=O,17,i,1,-3,-3,0,.,1,
COc1ccc(C2(CNC(=O)c3ccc(N)cc3)CCCC2)cc1,-6,i,-7,-8,-1,-2,-8,-3,
O=C1N=C(N2CCCCC2)S/C1=C/C1=Cc2ccccc2OC1,-6,i,2,3,4,1,.,6,
Cc1ccc(OCCC(=O)OCC(=O)NC2CCCC2)cc1,.,i,.,.,6,1,-8,.,
O=[N+]([O-])c1ccc(-c2nnc(CNC3CCCC3)o2)cc1,17,i,2,-15,-1,-1,-11,68,eIF4H FP inh retest=-7;PABP polyA inh retest=1
COc1cccc(C(=O)NC(C)c2ccc(Br)cc2)c1 (stereo unspecified),0,i,8,-1,0,3,.,-3,
Cc1cc(-c2sccc2C)nc(-n2cccc2)n1,0,i,?,35,-1,-1,-5,44*,PABP polyA inh retest=81*

# Next entries:
SMILES,Env fusion inh,Rce1 inh,eIF4H FP inh,CSC inhib,MT1-MMP act inh,MT1-MMP act inh RFP,UUG fidelity,PABP polyA inh,others
N#C/C(=C\c1ccc(N2CCCC2)c([N+](=O)[O-])c1)c1nc2ccccc2[nH]1,-74,i,-4,.,10,3,-13,4,
CCN(CC(=O)N1CCCCCC1)S(=O)(=O)c1ccc(Cl)cc1,.,i,-16,19,8,0,-16,1,
Cc1c(N=Cc2ccccn2)c(=O)n(-c2ccccc2)n1C,.,i,2,-7,-1,1,-4,4,
CCCn1c(=O)c2c(c3ccccc31)OC(C)C(=O)N2 (stereo unspecified),.,i,-6,2,7,5,-7,6,
O=S(=O)(c1ccc(NC(=S)NCc2ccco2)cc1)N1CCCCC1,6,i,-3,11,0,-3,.,7,
Cc1cc(C)cc(N(CC(=O)Nc2ccccc2C(=O)N2CCOCC2)S(C)(=O)=O)c1,-22,i,3,-1,-1,1,.,5,
O=C(CCN1CCCCC1)Nc1ccccc1,-6,.,-3,-2,1,3,-6,-10,
N#CC1=C2SCN(Cc3ccccc3)CN2C(=O)CC1c1ccccc1F (stereo unspecified),.,i,8,-8,3,4,-13,3,
CC(OC(=O)c1nc(Cl)ccc1Cl)C(=O)c1ccccc1 (stereo unspecified),-5,i,.,-9,-1,6,-27,.,
C=CCOc1ccc(/C(O)=C2\C(=O)C(=O)N(CCN(C)C)C2c2cccs2)cc1 (stereo unspecified),.,i,-4,-15,-4,2,-21,1,
CCN1CCN(C(=O)C2CCN(c3nnc(C)c4c(C)n(-c5ccc(C)cc5)nc34)CC2)CC1,14,i,-5,12,-3,8,-19,5,
O=C(COC(=O)c1nc(Cl)ccc1Cl)Nc1ccc2[nH]c(=O)[nH]c2c1,-21,i,.,-5,1,4,-19,.,
CC(=O)c1ccc(OC(=O)/C=C/c2ccccc2)cc1,-5,i,-6,-6,-1,1,-5,6,
CCOP(=O)(OCC)/C(=N/OC(=O)c1ccccc1C)C(N)=O,31,i,0,-5,-7,-1,-5,0,
C[C@H](CO)N1C[C@H](C)[C@@H](CN(C)Cc2ccccc2)OCCCC[C@H](C)Oc2ccc(N(C)C)cc2C1=O,19,.,.,.,5,4,-2,.,
Cc1ccccc1NC(=S)NC12CN3CN(CN(C3)C1)C2,5,i,0,.,-1,1,.,8,
O=C(O)Cn1cccc1C(=O)c1ccccc1,.,i,6,-5,-1,3,5,-2,
COc1ccc(C(CNC(=O)CNS(=O)(=O)c2ccc(NC(C)=O)cc2)N2CCOCC2)cc1 (stereo unspecified),-1,i,.,-8,0,5,.,.,
Cc1cc(-c2nc3ccccc3c(=O)o2)ccc1[N+](=O)[O-],-14,i,-4,20,4,1,-13,-2,
CC(=O)Nc1nnc(SCC(=O)N2C(C)CCCC2C)s1 (stereo unspecified),-1,i,-6,.,0,5,-14,1,
CCOC(=O)c1c(C)c(-c2ccccc2)n(CC(=O)N2CCCC2)c1C,10,i,9,0,-4,-1,9,-6,
Cc1nnc2ccc(-c3ccc(NC(=O)c4cccnc4Cl)cc3)nn12,7,i,0,-9,9,9,-12,0,
O=C(Cn1cnc2ccccc2c1=O)c1ccc2c(c1)OCCO2,.,i,3,.,4,4,-29,-5,
Cc1ccc(Cl)cc1NC(=O)CSc1sc2c(O)cc(=O)[nH]c2c1C#N,12,i,17,-4,-3,8,-12,21,
Cc1cc(NS(=O)(=O)c2ccc(NC(NC(=O)C(C(F)(F)F)C(F)(F)F)(C(F)(F)F)C(F)(F)F)cc2)no1,.,.,1,.,5,7,-15,-6,
CC1=C(C(=O)N2CCOCC2)CC(CC(=O)NCC2CCCCC2)C(=O)N1CCC1=CCCCC1 (stereo unspecified),2,.,.,.,-1,-1,12,.,
N#CC1=C(N)C(C#N)(C#N)[C@H](c2ccoc2)[C@H]2CN(Cc3ccccc3)CC=C12,.,i,?,48,-82,12,.,?,
CN1OC[C@@H]2CN[C@H](c3cccc(N4CCOCC4)c3)C[C@@H]21,1,.,.,.,2,3,-26,.,
CCN(CC)C(=O)Cn1cc(C(=O)C(=O)NCc2ccccn2)c2ccccc21,-3,i,-4,-19,0,5,-14,3,
O=C(COC(=O)c1cc(S(=O)(=O)N2CCCC2)ccc1O)Nc1ccccc1Br,0,.,.,-2,1,2,-9,.,
C[C@H](CO)N1C[C@H](C)[C@@H](CN(C)C(=O)Nc2ccc3c(c2)OCO3)Oc2c(NS(=O)(=O)c3cn(C)cn3)cccc2C1=O,4,.,.,-3,3,4,-9&23,.,
C=CCCCCCCCCc1nc(=S)[nH][nH]1,.,i,10,24,3,-2,-38,1,
O=C(O)C1C2C=CC(C2)C1C(=O)NCc1ccco1 (stereo unspecified),10,i,36,.,1,-1,5,-7,
COc1ccc(OC)c(CN2CCN(Cc3cc(=O)oc4cc(O)ccc34)CC2)c1,0,i,4,-11,-5,0,1,11,
O=C(C1CCCN(Cc2ccc(Br)cc2)C1)N1CCCCC1 (stereo unspecified),-4,i,8,-11,2,-1,-7,8,
O=C(CNC(=O)c1ccccc1)Oc1cccc(Cl)c1,-2,i,.,-11,-1,0,-17,.,
Cc1sc2ncnc(Sc3ccccc3C(=O)O)c2c1C,4,i,-2,-11,2,5,.,10,
COc1ccc(Nc2nc(N)c([N+](=O)[O-])c(N3CCOCC3)n2)cc1,-20,i,-4,6,-4,-3,-11,16,
CCNC(=O)Cc1ccc(NS(=O)(=O)c2ccc(F)cc2)cc1,-77,.,0,-2,-2,-1,17,5,
Cc1cccc(C)c1NC(=O)C1CCCN1C(=O)OC(C)(C)C (stereo unspecified),4,i,-2,8,-5,3,.,7,
O=C(Nc1ccncc1)c1ccc2c(c1)S(=O)(=O)c1ccccc1C2=O,0,i,2,12,-2,-24,-10,4,
Cc1sc(NC(=S)NC(=O)c2ccco2)c(C#N)c1C,-7,i,9,4,-1,0,-22,-2,
Cc1csc(-c2cnn(-c3ccccc3)c2NC(=O)c2cccc(C(F)(F)F)c2)n1,-96,i,-7,-10,-1,-11,13,-8,
CCOC(=O)C1(Cc2ccc(Cl)cc2)CCN(C(=O)c2cscn2)CC1,-12,.,-1,-6,5,-3,.,-3,
O=C(Nc1ccc2c(c1)nc1n2CCN(Cc2ccccc2)C1)c1cccs1,-6,i,8,-1,3,3,-19,3,
O=C(Nc1ccccc1)c1ccc(NC2CCCCC2)c(S(=O)(=O)N2CCOCC2)c1,16,i,-3,3,-15,-17,-11,1,
CCOC(=O)c1cnc2ccc(OCC)cc2c1NCc1ccccc1OC,95*,i,-16,76*,-21,-35,-3,-14,
COC(=O)c1ccc2c(=O)n(CCN3CCOCC3)c(SCC(=O)NCc3ccccc3)nc2c1,4,i,3,-5,-2,-3,-10,12,
CCOC(=O)CC(=O)Nc1ccccc1C(=O)O,.,i,1,-7,.,.,-23,-1,
CCOc1cccc(/C(O)=C2/C(=O)C(=O)N(CCOC)C2c2ccncc2)c1 (stereo unspecified),-18,i,-4,8,1,3,-30,10,
NS(=O)(=O)c1ccc(CNS(=O)(=O)c2ccc3c(c2)OCCO3)cc1,6,i,8,-7,0,3,-20,-3,

# Grouped by structure: the compounds so far with a CF3 group (2)
SMILES,Env fusion inh,Rce1 inh,eIF4H FP inh,CSC inhib,MT1-MMP act inh,MT1-MMP act inh RFP,UUG fidelity,PABP polyA inh,others
Cc1cc(NS(=O)(=O)c2ccc(NC(NC(=O)C(C(F)(F)F)C(F)(F)F)(C(F)(F)F)C(F)(F)F)cc2)no1,.,.,1,.,5,7,-15,-6,
Cc1csc(-c2cnn(-c3ccccc3)c2NC(=O)c2cccc(C(F)(F)F)c2)n1,-96,i,-7,-10,-1,-11,13,-8,
